# NPYLR7 ag: agonists of mosquito NPYLR7 receptor, primary screen, cell-based, Aedes aegypti, calcium fluorescence, mosquito biting behavior; Aedes aegypti neuropeptide Y-like receptor 7 (NPYLR7); HEK293T NPYLR7/Galpha15, GCaMP6s calcium fluorescence; activation, % at 10 µM; 270,000 compounds, 0.15% hits; in the data active = activation above about 40%;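 note: 0% = vehicle and 100% = reference agonist at the receptor; some compounds past the cut are filed as inactive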
# NPYLR7 ag max-min: second read-out of NPYLR7 ag, no call of its own (marks repeat the call); activation, %; measured here: Max-Min RFU normalised activation; some inactives read as strong as hits;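 span of the calcium signal over five minutes; 0% = vehicle and 100% = native peptide agonist; compound fluorescence can raise it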
# * hit, by the source's call; & = joins results of further samples.
molecule | NPYLR7 ag | NPYLR7 ag max-min
CCCC(C)(C)C(=O)N1CCC1(C)C(=O)NS(=O)(=O)c1ccc(Cl)cc1 (stereo not given) | -1 | 2
Nc1c(NCc2ccccc2)ncnc1Oc1ccccc1F | 23 | 12
O=C(COc1ccc(Cl)cc1)N1CCN(Cc2ccc3c(c2)OCO3)CC1 | 10&-8&-1 | 3&-9&-6
COC(=O)c1ccc(C=NNC(=O)c2cc(-c3cccc([N+](=O)[O-])c3)n[nH]2)cc1 | -1 | -3
COc1ccc(C2c3cc(OC)c(OC)cc3CCN2C(=O)c2c(OC)cccc2OC)cc1OC (stereo not given) | 33 | 24
CC(C)(C)C(NCCC(=O)Nc1sccc1C#N)c1cccs1 (stereo not given) | 10 | 5
CCc1ccccc1C(=O)N1CCC(Cc2cccc(C(=O)O)c2)CC1 | 5 | 5
COc1cccc(C(=O)N2CCC(c3nc(-c4ccccc4F)no3)CC2)c1 | 4 | -1
Cc1cc(O)c(C(c2ccncc2)N2CCC(C)CC2)c(=O)n1Cc1cccnc1 (stereo not given) | 12 | 5
COc1ccc(S(=O)(=O)NCCOc2ccc3nnc(C)n3n2)c(OC)c1 | 3 | 3
CCCc1cc(C(=O)Nc2ccccc2Br)n(C)n1 | 12 | 5
CCCCNC(=O)NC(C(=O)Nc1nnc(-c2ccc(Br)cc2)s1)C(C)CC (stereo not given) | 15 | 24
FC(F)(F)c1ccccc1CN1CCCC(Nc2ccc3c(c2)OCO3)C1 (stereo not given) | 10 | 5
CN=C(NC)NCc1ccc(OC)cc1 | -15 | -30
O=C(NC1CCCCC1)c1coc(CN2CCN(CC(O)CN3CCOCC3)CC2)n1 (stereo not given) | 7 | 4
O=C(CCc1cc(=O)[nH]o1)N1CCCC(Nc2cccc(F)c2)C1 (stereo not given) | 4 | 3
O=C(NC1CCC(O)CC1)c1cccc(OC2CCN(Cc3ccncc3)CC2)c1 (stereo not given) | 6 | -1
COc1ccc(CN(C(=O)NC(C)(C)C)C2CC2)cc1OS(C)(=O)=O | 22 | 24
CCCc1[nH]n(-c2cccc(Cl)c2)c(=O)c1C1=C([n+]2cccc(C)c2)C(=O)N(CCC)C1=O | 4 | 3
Cc1ccc2c(c1)NC(c1cccnc1)C1C(=O)CC(c3ccccc3)CC1=N2 (stereo not given) | -6 | -8
CCn1c(CCCCc2n[nH]c(=S)n2CC)n[nH]c1=S | 2 | 9
Cc1c(C)n2c3c(=O)[nH]c(=O)n(C)c3nc2n1CCc1ccccc1 | -15 | -16
Cc1ccc(C2(O)CCN(C(=O)c3cccnc3N3CCOCC3)CC2)nc1 | 0 | 2
O=C(CN1CCN(Cc2nc(-c3ccco3)cs2)CC1)N1CCOCC1 | -18 | -24
O=C(c1ccc(CSCc2cccs2)cc1)N1C2CCC1CC(Oc1ccc3c(c1)OCO3)C2 (stereo not given) | 3 | 13
Cc1ncc2c(c1CNC(=O)c1ccccc1C1CCNC1)CCNC2 (stereo not given) | 11 | 8
CCOc1ccc(C2c3[nH]c4ccccc4c3CCN2C(=O)c2cccs2)cc1 (stereo not given) | 5 | 0
Cc1cnc(C(=O)Nc2sc3c(c2C(=O)NCC2CCCO2)CCCC3)cn1 (stereo not given) | 6 | 7
Cc1cccc(-n2nc(-c3cccn3C)cc2C(=O)NCCc2ccc(Cl)cc2Cl)c1 | -1 | 1
CC(=O)N[C@@H]1C[C@H](CC(C)C)O[C@H](c2ccc(-c3ccccn3)cc2)C1 | -3 | -5
C#CCn1c(O)c(N=NC(=O)CNC(=O)Cc2ccccc2)c2ccccc21 | -6 | -13
CCCn1c(N)cc(=O)[nH]c1=O | 4 | 4
O=C(NCCOc1ccc2nnc(-c3ccccc3)n2n1)Nc1ccccc1C(F)(F)F | 0 | -2
Fc1cc(-c2cccs2)ccc1CNC1CCN(CC(F)(F)F)C1 (stereo not given) | -5 | -6
CCc1nc2c(OCCn3cccc3)cccn2c1N(C)C(=O)c1ccco1 | 9 | -2
C=CCN1CCN(c2nc3c(c(=O)[nH]c(=O)n3C)n2Cc2ccccc2C)CC1 | -4 | -6
COc1cc(OC)c(OC)cc1CNCc1c(C)cc(C)cc1C | -1 | -2
CN(C)c1ccc(NC(=O)C2CCC2)cc1CN(Cc1ccco1)C(=O)C1CC1 | -4 | 4
COc1ccc(-c2noc(CSCc3ccc(Cl)cc3)n2)c(OC)c1 | -1 | 26
CC(C)N(CC(=O)Nc1nc(CC(=O)NCCc2ccccc2)cs1)C(=O)c1ccc(Cl)c(Cl)c1 | 3 | 4
COc1cn(CC(=O)NCCc2ccccc2)c(CSc2nnnn2C)cc1=O | -4 | -6
NC(=O)c1ccc[n+](C2OC(COP(=O)(O)OP(=O)(O)OCC3OC(n4cnc5c(N)ncnc54)C(O)C3O)C(O)C2O)c1 (stereo not given) | -6&-6&-7 | -13&-9&-10
O=c1[nH]c(=S)[nH]c(O)c1C=C1C=Nc2ccccc21 | -4 | -8
Cn1cc(-c2ccc3c(c2)COCC(=O)N3CC2CC2)cn1 | 5 | 1
CCc1nc2ccc(C(=O)NCc3ccccc3OC)cn2c1N(C)Cc1ccc(N(C)C)cc1 | -2 | -15
O=C(c1cccnc1N1CCC(O)(C(=O)O)CC1)N1CCCCC1 | 6 | 5
Cc1ccc(-n2c(=O)[nH]c3c(C(N)=O)nc(CCc4ccccc4)nc32)cc1C | -6 | -9
CC(C)C(=O)Nc1ccc(N(C)C)c(CN(CC2CC2)C(=O)c2ccccc2Cl)c1 | -9 | 1
CCCn1c(SCC(=O)N(CCC#N)CCC#N)nc2ccccc2c1=O | -2 | 10
CNC(=O)C(C#N)C(=O)c1cc(C)c(OC(F)F)c(C)c1 (stereo not given) | -2 | -6
COc1cc(-c2ccc3c(c2)COC2(CCN(C(=O)c4c(C)cc(C)cc4C)CC2)O3)cc(OC)c1OC | 1 | -10
COc1ccc(C(=O)N(Cc2c(-c3ccccc3)noc2N2CCCC2)CC2CCCO2)cc1 (stereo not given) | 2 | 8
Cc1cc(=O)n2c(n1)SCC2CC(=O)NCCCOC(C)C (stereo not given) | -1 | 0
Cc1ccc(Cl)cc1NC(=O)CN1C(=O)c2ccccc2C1=O | -6 | -13
O=C(NC(=S)NCc1ccccc1)C1CCCCC1 | 1 | 38
COc1cc2c(cc1OC)C1Cc3ccc(OC)c(OC)c3CN1CC2 (stereo not given) | -9 | -11
CCc1nnc2n1N(C(C)=O)C(c1ccc(C)cc1)=C(C(C)=O)S2 | 2 | -1
COc1ccc(OC)c(C(=O)N2CCN(Cc3ncccc3C)CC2)c1 | -3 | 3
COC(=O)C1=C(C)N(C)C(C)=C(C(=O)OC)C1c1ccc(C)cc1 | -1 | -4
CCc1nc2ccc(C(=O)Nc3cccc(OC)c3)cn2c1N(C)Cc1nccn1C | -5 | -9

# 2 entries from above, set out differently:
structure: COC(=O)C1=C(C)N(C)C(C)=C(C(=O)OC)C1c1ccc(C)cc1
- NPYLR7 ag = -1
- NPYLR7 ag max-min = -4
structure: CCc1nc2ccc(C(=O)Nc3cccc(OC)c3)cn2c1N(C)Cc1nccn1C
- NPYLR7 ag = -5
- NPYLR7 ag max-min = -9

# Next entries:
# The line under a structure holds: NPYLR7 ag, NPYLR7 ag max-min
COC(=O)C1CC2(CCN(CC(=O)N3CCN(c4ccccc4)CC3)CC2)c2ccccc21 (stereo not given)
→ 2, 41
CCn1nc(C)c(C(=O)N2C[C@@H]3C4CCC(CC4)[C@@H]3C2)c1C
→ 2, -1
O=C(CCC(=O)NN=Cc1ccco1)NN=Cc1ccco1
→ 8, 12
Cc1cc(NC(=O)C(=O)N2CCOC3CCCCC32)no1 (stereo not given)
→ 6, 4
O=C(CSCc1ccccc1Cl)N1C[C@H]2CC=CC[C@H]2C1
→ 3, 5
CC(C)(C)C1c2[nH]c3ccccc3c2CCN1Cc1cccn1-c1ncccn1 (stereo not given)
→ 4&-11, -3&-15
C=CCn1c(SCC(C#N)CCC#N)nnc1-c1ccc(Br)cc1 (stereo not given)
→ 0, 1
Brc1cccc2sc(N3CCc4ccccc4C3)nc12
→ -1, -2
CCOC(=O)c1cc(-c2ccc(N3CCN(C(=O)CCC(=O)OC)CC3)cc2)n(-c2ccccn2)n1
→ 7, 5
CCC(O)c1nc2ccccc2n1CCOc1cccc(C)c1C (stereo not given)
→ 2, 5
O=C(CCN1CCN(CC2CCOC2)CC1)Nc1ccc(Br)cc1F (stereo not given)
→ 12, 12
CC(C)CN1CC(C(=O)NC2CCC(n3cnnc3)CC2)CC1=O (stereo not given)
→ 1, -4
COC(=O)CCCCC(=O)NCc1cccc(-c2ncc(-c3ccc(F)cc3)[nH]2)c1
→ -5, -6
CCc1ccc(C(C)NS(=O)(=O)CC2CCCCC2)cc1 (stereo not given)
→ -4, -6
CCN(CCn1c(=O)oc2ccccc21)CC1CCOCC1
→ -4, 0
CC(C)C(NC(=O)C12CC3CC(CC(C3)C1)C2)C(=O)NNC(=O)c1ccco1 (stereo not given)
→ 9, 12
Cc1noc(-c2ccncc2)c1C(=O)NCCC#N
→ -3, 3
COc1ccc2c(c1)c(C(=O)NC1CCCN(C3Cc4ccccc4C3)C1)c(C)n2C (stereo not given)
→ 0, -1
CCSc1ncc(-c2nccn2Cc2ccc3c(c2)OCO3)cn1
→ 14, 4
CCc1nc(CN2CCN(C)C(C(=O)O)C2)c(C)[nH]1 (stereo not given)
→ 5, 4
CC(=O)NCCn1cnc(-c2ccccc2)c1-c1coc(-c2ccccc2)n1
→ 6, 0
CCC1CN(C(=O)c2cnc3ccccc3c2)CCC(=O)N1Cc1ccccc1 (stereo not given)
→ 5, -2
O=c1cc(CSc2ccc(F)cc2F)nc2ccc(Br)cn12
→ 3, 2
CCCc1nnc2sc(Cc3cc4c(cc3Cl)OCCO4)nn12
→ 1, -2
CC(C)CNC(=O)[C@@]1(OCc2ccc(F)cc2)CC(OCc2ccc(C(F)(F)F)cc2)[C@@H]2OC(C)(C)O[C@@H]2C1 (stereo not given in full)
→ 17, 15
COC(=O)c1ccc(Cn2c(C)c(C(=O)NCc3ccc(Cl)c(Cl)c3)sc2=O)o1
→ 9, 6
Cc1cc(NC(=O)CN2CCN(c3ccccc3F)CC2)no1
→ 11, 8
CCOc1ccc(CN(CCc2c[nH]c3ccccc23)Cc2nc(C(=O)NCC3CC3)co2)cc1
→ 20, 18
COc1ccc(C2c3cccn3CCCN2Cc2ccncc2)cc1 (stereo not given)
→ 19, 11
Cc1cccc(CC(=O)NC2CC(=O)N(CCc3ccccc3)C2)c1 (stereo not given)
→ 2, 0
CC(=O)C1=C(c2ccccc2)N(C(C)=O)n2c(nnc2-c2ccc(C)cc2)S1
→ 2, -1
COc1cc(C(=O)NCCc2csc3nc(-c4cccc(C)c4)nn23)cc(OC)c1OC
→ 1, -1
O=C(/C=C/c1ccccc1Cl)NCC1CCN(C(=O)COc2ccccc2)CC1
→ -9, -10
CCO[C@H]1[C@H](NC(=O)CN2CCCC2=O)c2ccccc2C12CCNCC2
→ 5, 8
COc1cc(OC)c(C(=O)CCCCN2CCC3(CC2)NC(=O)NC3=O)cc1NS(=O)(=O)c1ccc(C(F)(F)F)cc1
→ 1, -3
Fc1ccc(-c2nc(-c3cccs3)no2)cc1
→ 2, 1

# Arranged by SMILES length (falling): some entries from above
# The line under a structure holds: NPYLR7 ag, NPYLR7 ag max-min
CC(C)CNC(=O)[C@@]1(OCc2ccc(F)cc2)CC(OCc2ccc(C(F)(F)F)cc2)[C@@H]2OC(C)(C)O[C@@H]2C1 (stereo not given in full)
→ 17, 15
CCOc1ccc(CN(CCc2c[nH]c3ccccc23)Cc2nc(C(=O)NCC3CC3)co2)cc1
→ 20, 18
COc1cc(C(=O)NCCc2csc3nc(-c4cccc(C)c4)nn23)cc(OC)c1OC
→ 1, -1
CCO[C@H]1[C@H](NC(=O)CN2CCCC2=O)c2ccccc2C12CCNCC2
→ 5, 8
Cc1cc(NC(=O)CN2CCN(c3ccccc3F)CC2)no1
→ 11, 8
Fc1ccc(-c2nc(-c3cccs3)no2)cc1
→ 2, 1

# Record cards, from the list above:
# CC(C)CNC(=O)[C@@]1(OCc2ccc(F)cc2)CC(OCc2ccc(C(F)(F)F)cc2)[C@@H]2OC(C)(C)O[C@@H]2C1 (stereo not given in full) as listed: NPYLR7 ag: 17; NPYLR7 ag max-min: 15
# CCC1CN(C(=O)c2cnc3ccccc3c2)CCC(=O)N1Cc1ccccc1 (stereo not given) as listed: NPYLR7 ag: 5; NPYLR7 ag max-min: -2

# Source: PubChem BioAssay (Fisher Drug Discovery Resource Center)

# A portion of the library; the hit share may differ from the screen's.
